Assay outcomes from PubChem.
Cruzain Triton: blocks cruzain activity in presence of Triton detergent | P25779 | Potency, µM, without a hit: max response, negative = inhibition, most hits filed as inhibitors | purified cruzain, Z-FR-AMC fluorescence, 0.01% Triton | AID 1478 | 200,000 compounds, 0.43% hits;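 note: plate controls were neutral wells for no effect and buffer without enzyme for full effect; nearly all actives have a fitted effect of over 40% in size; top concentration of the series not given in the record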
Target sequence (P25779 123-467 limits assumed): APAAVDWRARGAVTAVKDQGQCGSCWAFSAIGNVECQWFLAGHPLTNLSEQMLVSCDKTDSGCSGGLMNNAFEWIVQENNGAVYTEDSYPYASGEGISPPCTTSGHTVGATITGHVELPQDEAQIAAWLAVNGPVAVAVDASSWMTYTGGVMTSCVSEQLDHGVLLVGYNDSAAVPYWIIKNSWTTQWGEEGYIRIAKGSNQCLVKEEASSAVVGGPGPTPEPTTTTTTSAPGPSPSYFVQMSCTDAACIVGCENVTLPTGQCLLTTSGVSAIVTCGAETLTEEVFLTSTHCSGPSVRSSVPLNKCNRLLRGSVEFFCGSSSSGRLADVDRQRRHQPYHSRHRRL
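Read-out: AMC fluorescence (360 nm excitation, 450 nm emission), four reads over 2 min, first-to-third difference used. Conditions: cruzain 1.5 nM, Z-FR-AMC 2 uM, pH 5.5 acetate, 5 mM DTT, 0.01% Triton X-100.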
RE007 growth inh: less growth of the S. pombe RE007 Vpr strain. S. pombe RE007 Vpr strain, BacTiter-Glo ATP luminescence, 24 h; control for the full effect not named in the record. Potency, µM (series often up to 92.2 µM), inactives show top-dose activity change, negative = less growth. 360,000 compounds, 0.21% hits. AID 651644; active = well fitted falling curve with a large enough effect; inconclusive = small, poorly fitted or top-dose-only effect; inactive = no such curve, though single readings can be large or run the other way;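 note: % is set by controls: 0 for no effect and ±100 for the full control effect; nearly all actives have a fitted effect of over 50% in size; the assay follows cell death caused by Vpr and the record does not say whether a fall means rescue or toxicity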
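Fission yeast RE007 carrying one integrated HIV-1 vpr copy, seeded at OD 0.01 in PMG+AL medium with 23 nL pinned compound. Grown 24 h at 30 degrees; viability read by BacTiter-Glo luminescence after 5 min.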
SARS PLpro yeast: SARS-CoV PLP inhibition in yeast; 330,000 compounds, 0.19% hits; Potency, µM (top dose mostly 32.9 µM), without a hit: top-dose activity, positive = growth rescue; S. cerevisiae expressing SARS-CoV PLpro, growth rescue; control for the full effect not named in the record; active means well fitted rising curve with a large enough effect; inconclusive means small, poorly fitted or top-dose-only effect; inactive means no such curve, though single readings can be large or run the other way; note: 0% is about no effect; nearly all actives have a fitted effect of over 55% in size; growth read by luminescence after 48 h
NS1 function inh: blocks influenza NS1 protein function; S. cerevisiae slowed by influenza A NS1, growth recovery by OD600; Potency, µM (titrated, usually from 46.1 µM), inactives show at the highest dose activity, positive = more growth; 270,000 compounds, 0.4% hits; active means well fitted rising curve with a large enough effect; inconclusive means small, poorly fitted or top-dose-only effect; inactive means no such curve, though single readings can be large or run the other way; note: nearly all actives have a fitted effect of over 50% in size
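A cell-based growth assay was used: compounds that relieve NS1-induced slow growth of budding yeast raise OD600. Assay medium was yeast nitrogen base with ammonium sulphate and -URA supplement, pH 6.0, with 2% galactose.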
Marburg entry inh: Marburg virus entry inhibition | Marburg virus pseudotyped entry inhibition, cell reporter; control for the full effect not named in the record; about a third of the inactives were read at about 46 µM | Potency, µM (series often up to 37.8 µM), without a hit: top-dose activity change, negative = inhibition, usual class: inhibitors | 300,000 compounds, 1.8% hits | AID 540276; active = well fitted inhibition curve with a large enough effect; inconclusive = small, poorly fitted or top-dose-only effect, or effect the other way; inactive = flat fitted curve, though single readings scatter; tested in HEK293 cells; about a fifth of its hits are not listed in these tables; note: % is set by controls: 0 for no effect and ±100 for the full control effect; luciferase read-out
Cruzain noTriton: cruzain (T. cruzi) inhibition without detergent. P25779. 200,000 compounds, 2.3% hits. Potency, µM, for the others: max response, negative = inhibition, hits mostly inhibitors. purified cruzain, Z-FR-AMC fluorescence, no detergent. AID 1476;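 note: plate controls were enzyme without inhibitor for no effect and buffer without enzyme for full effect; nearly all actives have a fitted effect of over 40% in size; top concentration of the series not given in the record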
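Detergent-free condition (0.00005% Triton X-100) in acetate buffer pH 5.5 with DTT. 1.5 nM enzyme and compound were pre-mixed 15 min, then 2 uM Z-FR-AMC substrate added; reaction progress from fluorescence change between first and third reads (60 s).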
2A StopGo: lowers the luciferase signal of an FMDV 2A StopGo reporter; 410,000 compounds, 1.2% hits; Potency, µM (doses to about 57.9 µM), inactives show at the top dose signal change, negative = less light; human cells with a luciferase reporter of 2A StopGo recoding; control for the full effect not named in the record; active = well fitted falling curve with a large enough effect; inconclusive = small, poorly fitted or top-dose-only effect; inactive = no such curve, though single readings can be large or run the other way; tested in HEK293T cells; note: % is set by controls: 0 for no effect and ±100 for the full control effect; nearly all actives have a fitted effect of over 45% in size; luciferase light after 4 h
Lassa entry inh: blocks Lassa virus binding to or entry into cells | Lassa virus pseudotype entry inhibition, cell reporter; control for the full effect not named in the record | Potency, µM (doses to about 37.9 µM), inactives show at the top dose activity change, negative = inhibition, most hits filed as inhibitors | 300,000 compounds, 1.2% hits; active means well fitted inhibition curve with a large enough effect; inconclusive means small, poorly fitted or top-dose-only effect, or effect the other way; inactive means flat fitted curve, though single readings scatter; tested in HEK293 cells; note: % is set by controls: 0 for no effect and ±100 for the full control effect; nearly all actives have a fitted effect of over 50% in size; luciferase read-out
* hit, by the source's call; ? = inconclusive; nt = no result given; & = joins results of further samples; [ ] = remark or other dose. Unless noted, calls come from the whole dose curve; as a rule, active = well fitted curve in the direction sought with a large enough effect; inconclusive = small, poorly fitted or top-dose-only effect, or another doubt; inactive = no such curve, though single readings can be large; an effect the other way counts as inactive or inconclusive. Potency is the fitted concentration of half-maximal effect.

Each structure is followed by: Cruzain Triton	RE007 growth inh	SARS PLpro yeast	NS1 function inh	Marburg entry inh	Cruzain noTriton	2A StopGo	Lassa entry inh
- CC(=O)c1ccc(S(=O)(=O)Nc2ccc(C(=O)NCC(c3cccs3)N3CCOCC3)cc2)cc1 (stereo not given)
    nt	-12%	nt	nt	-14%	nt	-14%	13%
- Cc1cc(C)cc(NC(=O)/C=C/c2ccc([N+](=O)[O-])s2)c1
    -4.1%	-8%	5%	-2%	-20%	?	-28%	-16%
- NCC12CC3CC(C1)CC(CN)(C3)C2
    2.5%	1%	14%	8%	18µM*	-2%	-16%	-12%
- NS(=O)(=O)c1ccc(NC(=O)COC(=O)COc2ccc(Cl)cc2)cc1
    nt	0%	0%	6%	-18%[46.1 µM]	nt	-11%	1%
- O=C(c1ccc2c(=O)n(CCc3ccccc3)c(=O)[nH]c2c1)N1CCN(c2ccc(Cl)cc2)CC1
    -5.9%	nt	nt	nt	?	-21%	16µM*	?
- CCCOc1ccc(C(=O)N2CCCC2C(=O)O)cc1 (stereo not given)
    -3.3%	8%	3%	11%	20%	0%	nt	2%
- O=C(NCCN1CCCCC1)Nc1cccc(F)c1
    nt	13%	3%	6%	-2%[46.1 µM]	nt	0%	11%[46.1 µM]
- COc1ccc(NC(=O)c2cccc3cccnc23)cc1S(N)(=O)=O
    nt	3%	6%	9%	-1%[46.1 µM]	nt	53%[activator]	6%[46.1 µM]
- O=C(CCCCCN1C(=O)c2cccc3cccc(c23)C1=O)NCc1ccco1
    nt	1%	1%	5%	-15%	nt	-5%	3%
- N=c1sccn1CC(=O)Nc1ccc([N+](=O)[O-])cc1Cl
    nt	-10%	0%	-2%	nt	nt	-18%	nt
- O=C(Nc1nccs1)C1CCCCN1S(=O)(=O)c1ccccc1 (stereo not given)
    nt	-4%	-4%	0%	nt	nt	-9%	nt
- CN1C2CCC1CC(NC(=O)CSCc1ccc(Cl)cc1Cl)C2 (stereo not given)
    nt	-15%	1%	-3%	?	nt	-11%	-15%[46.1 µM]
- Cc1ccc(/C=N/NC(=O)CC2N=C(Cc3ccccc3)NNC2=O)cc1 (stereo not given)
    nt	1%	nt	nt	2%	nt	-20%	-1%
- C#CCN1C(=O)C(O)(CC(=O)c2ccc(OC)c(OC)c2)c2ccccc21 (stereo not given)
    2.3%	1%	1%	0%	?	8%	?	-18%
- Cn1c(=O)c2c(nc(SCC(=O)c3ccc(F)cc3)n2C)n(C)c1=O
    nt	1%	-3%	4%	20%[46.1 µM]	nt	-25%	10%
- N=C1c2ccccc2CN1CC(=O)c1ccccc1
    -5.5%	-2%	1%	-5%	?	8%	35%[activator]	?
- NCC(=O)c1cccc2ccc[n+]([O-])c12
    nt	6%	1%	0%	nt	nt	-3%	nt
- COc1ccc(CNC2CC(C)N(C)CC2C)cc1OC (stereo not given)
    nt	11%	-2%	2%	20%[46.1 µM]	nt	?	-6%[46.1 µM]
- CC(=O)N1CCOCCOCCOCC1
    nt	-8%	-1%	1%	0%[14.2 µM]	nt	-5%	-2%
- COc1cc(/C=C(/C#N)c2ccc(F)cc2)ccc1OCc1ccc(C(=O)O)o1
    -26%	4%	-3%	-82%	1%&1%	?	0%	13%
- Fc1ccc(SCCc2ccncc2)cc1
    2.3%&-0.9%	2%&13%	-1%&-11%	-1%&-3%	2%&7%	4%&0%	-2%&5%	-8%&0%
- Cc1c(CC(=O)N2CCN(C(=O)C3COc4ccccc4O3)CC2)c(=O)oc2cc(O)ccc12 (stereo not given)
    nt	-7%	-1%	0%	nt	nt	-29%	nt
- CC1(O)CCC2C3CCC4=CC(=O)CCC4=C3C=CC21C (stereo not given)
    nt	1%	nt	nt	4%[46.1 µM]	nt	-15%	-8%[46.1 µM]
- CCOC(=O)Cn1cc(C(=O)c2cccs2)c2ccccc21
    -15%	1%	-22%	-33%	?	-14%	-1%	3%
- N#CCCn1cc(C(=O)Nc2ccccn2)c(-c2ccccc2)n1
    nt	9%	1%	14%	3%	nt	2%	?
- Cc1ccc(S(=O)(=O)N(CC(=O)Nc2cccc(C)c2C)C(=O)N2CCN(C)CC2)cc1
    nt	-14%	8%	nt	24%	nt	-8%	-3%
- O=C(NCC1CCCO1)c1ccc2c(c1)N(Cc1ccccc1)CCS2 (stereo not given)
    nt	-2%	0%	-11%	nt	nt	8%	nt
- O=P(Cc1ccccn1)(c1ccccc1)c1ccccc1
    4.0%	22%	6%	9%	27%	0%	19%	8%
- CC(CCc1ccccc1)NC(=O)c1cccc(F)c1 (stereo not given)
    nt	3%	1%	-10%	-3%	nt	-11%	-5%
- CCn1c(O)c(N=NC(=O)CNC(=O)c2ccco2)c2ccccc21
    -3.5%	-10%	1%	6%	nt	-2%	-18%	nt
- CC1CCc2nc(NC(=O)C3CC3)sc2C1 (stereo not given)
    -4.9%	?	-6%	-5%	?	6%	8%	7%
- CCn1cc(C(=O)Nc2ccc(C)c([N+](=O)[O-])c2)cn1
    -3.4%	0%	-7%	-6%	3%	-9%	37%[activator]	4%
- O=S(=O)(Nc1cccnc1)c1cccs1
    4.4%	-14%	5%	0%	-8%	-10%	-5%	-5%
- O=C(O)C1C(C(=O)O)C1(c1ccccc1)c1ccccc1 (stereo not given)
    nt	-1%	0%	-1%	5%[46.1 µM]	nt	-13%	8%
- COc1cc(C(C)=O)ccc1OCC(O)CNCC1(N2CCCCC2)CCCCC1 (stereo not given)
    4.0%	10%[3.69 µM]	2%	?	-1%	2%	-8%	-2%
- CCc1cccc(NC(=O)Cc2ccc(OC)c(OC)c2)c1
    1.5%	-10%	9%	-6%	?	5%	?	?
- O=C(COc1cccc(Oc2ccccc2)c1)Nc1ncccn1
    -5.2%	-15%	-13%	-37%	7%	4%	8%	2%
- Cc1ccc(S(=O)(=O)CCC(=O)OCC(=O)N2CCN(c3ccccc3)CC2)cc1
    nt	-8%	-7%	nt	-8%	nt	-11%	0%
- Cc1cccc(NC(=O)c2ccc(NC(C)c3ccccc3)c([N+](=O)[O-])c2)n1 (stereo not given)
    nt	-1%	0%	3%	19%[46.1 µM]	nt	-20%	10%[46.1 µM]
- O=c1c2ccccc2nc(CSc2ncnc3nc[nH]c23)n1-c1cccc(C(F)(F)F)c1
    -1.2%	19%	3%	4%	5%	18%	0%	-18%
- COc1cccc(CNC(=O)CCc2nc3cc(S(=O)(=O)N4CCOCC4)ccc3n2C)c1
    nt	15%	-1%	nt	5%[46.1 µM]	nt	4%	-2%
- COc1ccc(C2c3c(-c4ccccc4O)n[nH]c3C(=O)N2CCc2ccc(OC)c(OC)c2)cc1 (stereo not given)
    -5.0%	-11%	6%	nt	?	6%	?	5µM*
- COc1ccc(-c2cc(C(=O)Nc3cccc(Cl)c3)no2)cc1
    nt	-8%	2%	8%	nt	nt	40%[activator]	nt
- O=C(NCCc1c[nH]c2ccccc12)c1cnc2sccn2c1=O
    -3.6%	2%	3%	-7%	nt	-7%	0%	nt
- COC(=O)c1ccccc1NS(=O)(=O)c1ccc2c(c1)oc(=O)n2C
    nt	-3%	-1%	-16%	nt	nt	-11%	nt
- O=C(COc1ccc(S(=O)(=O)N2CCOCC2)cc1)Nc1ccc2c(c1)OCCO2
    2.2%	7%	-2%	-20%	0%	8%	nt	1%
- CC(C)CCNCC(=O)NC(c1ccccc1)c1ccccc1
    nt	-23%	1%	-1%	5%	nt	-2%	8%
- CCCCn1c(=O)c(F)cn(Cc2ccc(OC)c([N+](=O)[O-])c2)c1=O
    -2.2%	3%	-23%	-4%	-1%	5%	-12%	13%
- Cc1nc(NC(=O)CSC2=NCCS2)sc1C(=O)N(C)C
    nt	17%	-3%	-4%	16%[46.1 µM]	nt	-6%	?
- COc1ccc(OC)c(CNC(=O)c2ccc3c(c2)c(C)c(C)n3Cc2ccc(Cl)cc2)c1
    1.8%	nt	nt	nt	nt	7.9µM*	-8%	?
- O=C1CCCC/C1=N\Nc1ccc(OCc2ccccc2)cc1
    -2.9%	161%	-50%	-32%	4%	?	13%	-23%
- COc1cc(OC)c2c(c1)OC(c1ccc(OC)c(OC)c1)C(O)C2=O (stereo not given)
    2.0%	0%	9%	-18%	nt	20%	-13%	nt
- C=CCN(c1nc(C)c(Br)c(OC)n1)S(=O)(=O)c1ccc(C)cc1
    nt	-5%	-3%	4%	nt	nt	-7%	nt
- Cc1ccc(C2(COC(=O)C(C)C)CO2)c(OC(=O)C(C)C)c1 (stereo not given)
    nt	-17%	1%	6%	nt	nt	-18%	nt
- COc1ccc(NS(=O)(=O)c2ccc(OC)c3ccccc23)cn1
    -4.9%	8%	-29%	-77%	?	-6%	32%[activator]	-19%
- NNC(=O)c1ncoc1-c1ccc(Cl)cc1
    nt	2%	-1%	3%	nt	nt	-9%	nt
- CC(C)[C@H](NC(=O)c1ccccc1)C(=O)OCC(=O)Nc1ccc2c(c1)OCCO2
    -28%	-4%	-19%	-7%	-1%	?	3%	nt
- Cc1ccc(S(=O)(=O)N2CCN(C(=O)Cn3c(=O)oc4ccccc43)CC2)cc1
    nt	-7%	2%	nt	?	nt	77%[activator]	-2%
- COc1cccc(CN(C)C(=O)CSC(C)C(=O)Nc2cc(C)on2)c1OC (stereo not given)
    nt	1%	6%	nt	-1%	nt	-7%	-4%
- COC(=O)c1ccccc1Nc1cc(C)nc2nc(C)nn12
    -1.6%	1%	5%	1%	6%	0%	-7%	0%
- CC1(C)CN(c2ccccc2)N(C(=O)c2ccc(C#N)cc2)C1=O
    3.3%	49%	-2%	-39%	?	-4%	4%	1%
- COC(=O)c1sccc1NC(=O)CC1C(=O)NCCN1C(=O)c1ccccc1 (stereo not given)
    nt	4%	1%	1%	?	nt	-10%	2%[46.1 µM]
- Cc1ccc(S(=O)(=O)N2CCCCC2)cc1C(=O)Nc1cccnc1
    nt	-12%	1%	3%	-22%[46.1 µM]	nt	-10%	15%[46.1 µM]
